Compound activity deposited in PubChem by ICCB-Longwood Screening Facility, Harvard Medical School.
fixLJ activator = B. multivorans fixK reporter activation; AID 1918990; B. multivorans fixK-promoter GFP reporter, 18 h; stronger effect = higher value; z-score (concentration not given with the values); actives 0.3% (n = 29,000);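 active = replicate mean overnight rise in green fluorescent reporter signal, 3 or more SD over negative controls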;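 note: score is relative to vehicle wells of the plate; 300 nL library stock went into each well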
Active calls of the source: *; & = joins results of further samples.

Start of the data: the first seven entries as a preview:
SMILES	fixLJ activator
Cc1ccc(-c2c(C)n3c4c(=O)n(C)c(=O)n(C)c4nc3n2CCCO)cc1	-1.9
CC(=O)Nc1ccc(S(=O)(=O)N2CCC(c3nnnn3-c3ccccc3)CC2)cc1	-0.24
CCCCCn1c(=N)c(S(=O)(=O)c2ccc(C)cc2)cc2c(=O)n3cc(C)ccc3nc21	-1.4
Cc1ccc2nc(-c3ccncc3)c(Nc3ccccc3C)n2c1	-1.3
O=C(C1CCCC1)N1CC2CN(Cc3ccccc3F)C[C@]2(C(=O)O)C1 (stereo partly drawn)	-0.57
Cc1ccc(C)c(CN2C(=O)c3ccccc3S(=O)(=O)c3ccc(C(=O)N4CCN(Cc5ccccc5)CC4)cc32)c1	-1.7
CN(C)CCN(C)C(=O)c1ccc(-c2ccc3cn[nH]c3c2)cc1	0.8

Results, repeating the preview:
SMILES	fixLJ activator
Cc1ccc(-c2c(C)n3c4c(=O)n(C)c(=O)n(C)c4nc3n2CCCO)cc1	-1.9
CC(=O)Nc1ccc(S(=O)(=O)N2CCC(c3nnnn3-c3ccccc3)CC2)cc1	-0.24
CCCCCn1c(=N)c(S(=O)(=O)c2ccc(C)cc2)cc2c(=O)n3cc(C)ccc3nc21	-1.4
Cc1ccc2nc(-c3ccncc3)c(Nc3ccccc3C)n2c1	-1.3
O=C(C1CCCC1)N1CC2CN(Cc3ccccc3F)C[C@]2(C(=O)O)C1 (stereo partly drawn)	-0.57
Cc1ccc(C)c(CN2C(=O)c3ccccc3S(=O)(=O)c3ccc(C(=O)N4CCN(Cc5ccccc5)CC4)cc32)c1	-1.7
CN(C)CCN(C)C(=O)c1ccc(-c2ccc3cn[nH]c3c2)cc1	0.8
O=C(CCC(=O)c1ccc(F)cc1)NCCc1cc(N2CCCC2)ncn1	-1.7
O=S(=O)(c1ccccc1)n1nc(-c2ccccc2)nc1NCc1ccc(Cl)cc1	2.1
CCC(C)NC(=O)Cn1cnc2sc(C)c(S(=O)(=O)N3CCN(c4ccccc4OC)CC3)c2c1=O (stereo not drawn)	-1
CC(Cc1ccc(O)c(O)c1)(NN)C(=O)O (stereo not drawn)	-1.3
COc1ccc(CCNC(=O)CCc2c(C)nc3cc(-c4cccc(F)c4)nn3c2C)cc1OC	-0.46
CCCCOC(=O)c1c(C)oc2c1cc(NS(=O)(=O)c1cc(OC)ccc1OC)c1ccccc12	-0.87
COc1ccc(-n2cccn2)cc1S(=O)(=O)NCCN1CCNCC1	-0.18
CCN(Cc1ccccc1)C(=O)CCS(=O)(=O)c1ccc2c(c1)CCN2C(C)=O	-1.5
O=C(Nc1ccc(Cl)c(-c2nc3ccccc3o2)c1)c1ccc(-c2cccc([N+](=O)[O-])c2)o1	-2
Cc1cccc(NC(=O)N2C[C@H]3COCC[C@@]3(O)[C@@H]3COCC[C@H]32)c1C	0.33
Cc1ccc(OCC(=O)N2CCC3C2CC(=O)N3Cc2nc(C)c(C)s2)cc1 (stereo not drawn)	-2.8
CCC(C)Cn1c(COc2ccc(OC)cc2)nc2ccccc21 (stereo not drawn)	-4
Cc1cccc(C(=O)NC(c2ccccn2)C2CC(O)C2)c1O (stereo not drawn)	-0.09
COc1cc(OC)nc(N2CCC(CNC(=O)c3c(C)noc3C)CC2)n1	-1.9
COc1cccc(N2CCN(Cc3nnc(-c4ccc5c(c4)OCO5)o3)CC2)c1	-1.6
Cc1ccc2c(=O)cc(C(=O)Nc3nc4ccc(Cl)cc4s3)oc2c1	-2
Cc1cc(C)c2c(=O)cc(C(=O)Nc3sc4c(c3C(=O)NCc3ccccc3)CCCC4)oc2c1	-1.1
COCCCn1c(=N)c(S(=O)(=O)c2ccccc2)cc2c(=O)n3cc(C)ccc3nc21	-3.1
COc1ccccc1NC(=O)C1=C(C)Nc2nc(SCc3ccccc3)nn2C1c1ccncc1 (stereo not drawn)	-1.4
CN1CCC(NC(=O)N(Cc2ccc3[nH]ccc3c2)C2CC2)C1 (stereo not drawn)	0.69
CCOc1cc(C2c3c(-c4ccccc4O)n[nH]c3C(=O)N2Cc2cccnc2)ccc1O (stereo not drawn)	-0.7
O=C1CCC(CN(Cc2ccccn2)Cc2nc3ccsc3c(=O)[nH]2)N1 (stereo not drawn)	-0.38
C=C(CC)C(=O)c1ccc(OCC(=O)O)c(Cl)c1Cl	-1.5&-0.86
COc1ccc(OC)c(NC(=O)Cc2c(C)n(C(=O)c3ccc(Cl)cc3)c3ccc(OC)cc23)c1	-1.9
Fc1ccccc1Nc1c2c(nc3ccccc13)CCC2	-0.5
CCOC(=O)c1sc(N2C(=O)c3oc4cc(C)c(C)cc4c(=O)c3C2c2cccc(O)c2)nc1C (stereo not drawn)	-0.26
CCCC1=Nc2cc(C(=O)N3CCC(C)CC3)ccc2Sc2ccc(C)cc21	0.73
Cn1c(=O)c2c(nc(SCC(=O)Nc3ccc(F)cc3F)n2Cc2ccccc2)n(C)c1=O	0.05
CCOc1ccc(C2CC(=O)c3c([nH]c(C(=O)OC4CCC(C)CC4)c3C)C2)cc1 (stereo not drawn)	-0.7
CCCc1noc(CN(C)C(=O)c2cc(OC)c3ccccc3n2)n1	-0.78
Cc1ccc(NC(=O)C2CCN(S(=O)(=O)c3c(C)noc3/C=C/c3cccs3)CC2)cc1F	-0.9
CC(C)Oc1cccc(C(=O)Nc2ccc(-c3nc4cc(Cl)cc(Cl)c4o3)cc2)c1	-0.42
CCOC(=O)c1ccc(NC(=O)Cn2ncc3c(C)n(Cc4ccccc4F)c(C)c3c2=O)cc1	-1.5
Cc1cccc(NC(=O)CSc2nnc(C)c(=O)[nH]2)c1	-0.41
c1cnc(N2CCN(c3ncc4c(n3)CCNC4)CC2)nc1	2.3
CC(=O)c1ccc(NC(=O)CCc2c(C)nc3cc(-c4ccc(Cl)cc4)nn3c2C)cc1	0.38
CCN(CC)CCCNC(=O)CN1C(=O)COc2ccc(S(=O)(=O)N3CCC(C)CC3)cc21	-0.36
CCOc1cc(-c2c(-c3ccccc3)ncn2CC2COCCO2)ccc1O (stereo not drawn)	1
COc1ccc(-c2noc(CSc3nnc(-c4ccncc4)n3-c3cccc(C)c3)n2)cc1OC	-0.16
Cc1ccc2ncc(S(=O)(=O)c3ccccc3)c(N3CCCCC3C)c2c1 (stereo not drawn)	1.2
CCCn1cc(S(=O)(=O)N2CCn3nc(CNC(C)=O)cc3C2)cn1	-1.1
COc1ccc(NC(=O)Cn2c(=O)n(CC3CCCO3)c(=O)c3ccccc32)c(OC)c1 (stereo not drawn)	-0.97
COCC(c1ccccn1)N(C)C(=O)c1ccccc1OC(F)(F)C(F)F (stereo not drawn)	0.17
O=C(CC1CC1)NC(c1cnc2ccccc2c1)C1CC(O)C1 (stereo not drawn)	-0.36
CCOc1ccc(NCc2cccn2-c2nnc(N3CCC(C(=O)NCCOC)CC3)s2)cc1	0
CCN(CCOc1ccccc1F)C(=O)CC1C(=O)Nc2cc(OC)ccc21 (stereo not drawn)	-1.4
O=C(NCC1CCN(C2CCCC2)CC1)c1ccc(NC(=O)C2CCC2)cc1	-0.13
COc1ccc(C(=O)NCCn2cc(SCC(=O)Nc3cccc(C)c3)c3ccccc32)cc1	0.21
CCOc1cccc(C(=O)N(Cc2ccc(N(C)C)cc2)CC2CCCO2)c1 (stereo not drawn)	0.06
CCCc1nc(N2CCC(N3CCCCC3)CC2)c2cnn(C)c2n1	0.43
O=C(CC1=CSC2=NCCCN12)N1CCC(C(O)c2cccs2)CC1 (stereo not drawn)	-1.7
CCn1cncc1CNC(=O)N(C)C1CCCc2ccccc21 (stereo not drawn)	-0.99
COC(=O)c1ccc(Cl)cc1NC(=O)NC(C)c1c(-n2cccc2)sc(C)c1C (stereo not drawn)	-0.47
The results go on.
SMILES	fixLJ activator
COc1ccc(CN(Cc2ccco2)C(=O)COc2ccc(Cl)cc2C)cc1	0.95
Cc1ccc(Nc2c(-c3ccc(C)o3)nc3cccc(C)n23)cc1	0.14
CCCc1nnc(NC(=O)c2nc(SCC)ncc2Cl)s1	-0.92
Cc1ccc(-c2nc3ccccn3c2Nc2ccc3c(c2)OCO3)cc1	0.17
CCOc1ccc(CNC(=O)Cn2ncc3c(=O)oc4ccc(C)cc4c32)cc1	-1.5
CN(C)c1ccc(-c2nc3ccccn3c2Nc2ccc3c(c2)OCCO3)cc1	-1.3
Cc1cccc(Nc2nc(-c3ccccc3)nc3ccccc23)c1	-3.7
Cc1oc2c(c1C(=O)NC(Cn1cccn1)c1ccccc1)C(=O)CCC2 (stereo not drawn)	0.11
COC(=O)c1cc(Cl)c(NC(=O)/C=C/c2ccc(Cl)cc2Cl)cc1OC	-1.2
CCOC(=O)c1ccc(NC(=O)CC2C(=O)OCCN2CC)cc1 (stereo not drawn)	0.81
CC(C)CNC(=O)c1cc2c(s1)CCOC21CCN(C(=O)C2CCC2)CC1	0.02
Cc1ccc2ncc(C(=O)c3ccc(C)c(C)c3)c(S(=O)(=O)c3ccccc3)c2c1	0.74
CCCCCSc1nc2sc3c(c2c(=O)n1-c1ccccc1)CCN(C(C)=O)C3	-0.77
NS(=O)(=O)c1ccc(CNC(=O)c2c[nH]c3c(F)cccc3c2=O)cc1	-2.4
COc1cccc(-c2nn(C)c3sc(C(=O)NCCc4ccc(Cl)cc4)cc23)c1	1.5
Cc1cc(-n2c(=O)[nH]c(=O)n(C)c2=O)ccc1Oc1ccc(SC(F)(F)F)cc1	-1.9
CCCCn1nc(NC(=O)c2cccc(Cl)c2)c2cc3cccc(C)c3nc21	-0.2
Cc1ccc(C(=O)Nc2ccccc2C(=O)O)cc1S(=O)(=O)N1CCCCCC1	-0.31
Cc1ccc(F)cc1S(=O)(=O)N1CC[C@@]2(C(=O)O)CCCN(C)[C@@H]2C1	-0.71
CCN(Cc1ccc(C)o1)C(=O)c1cn[nH]c1-c1cccc(OC)c1	-1.7
Cc1cccc(N2CCC(NC(=O)CCCn3cccn3)CC2)c1	-0.57
Cc1nn(-c2ccccc2)c(-n2cccc2)c1C(=O)NCCCN1CCN(c2ccccc2F)CC1	-2.2
O=C(CN1CCOCC1)N1CCCC(c2nccn2Cc2ccncc2)C1 (stereo not drawn)	-0.37
COc1cccc(-n2nnc3c(sc4nc(C)cc(C)c43)c2=O)c1	-1.8
CCc1nc2nc(C)cc(Nc3cc(Cl)ccc3C)n2n1	-2.8
COc1ccc(C(O)C(=O)NCCn2cc(Cl)cn2)cc1 (stereo not drawn)	-0.32
CCOc1ccc2oc(=O)cc(CN3CCN(C(=O)c4ccc(F)cc4)CC3)c2c1	0.73
COc1ccc(N2Cc3cccc(C(=O)Nc4ccc(C(C)C)cc4)c3C2=O)cc1	-1.2
CCOC(=O)CCCN1C(=O)CCn2nc(-c3cn(C)c4ccccc34)cc21	-2
COCCCNC(=O)c1ccc(Cn2c(=O)c3ccccc3n(CC(N)=O)c2=O)cc1	-0.66
COc1ccc(-c2nc3c([nH]2)CN(C(=O)CCc2ccncc2)CC3)cc1	-0.7
COc1ccccc1-n1cc(C(=O)NCc2ccccc2-n2cncn2)cn1	-1.5
COc1ccc(NC(=O)Cn2c(=O)n(Cc3ccccc3)c(=O)c3sc4ccccc4c32)cc1	-0.78
Cc1ccc2c(=O)cc(C(=O)Nc3sc4c(c3C(=O)NCC3CCCO3)CCC4)oc2c1 (stereo not drawn)	-0.33
Cc1ccc(Cl)cc1NC(=O)C(C)n1nnc2sc(-c3ccccc3)cc2c1=O (stereo not drawn)	-1.1
Cc1cc2cccc(C(=O)N3CCC(CCN4CCCC4=O)CC3)c2o1	-1.9
COc1ccccc1OC(C)(C)C(=O)NC1CC(c2nnc(CO)n2C)C1 (stereo not drawn)	0.05
O=C(c1n[nH]c2c1COCC2)N1CC(O)C(Cc2ccnc3ccccc23)C1 (stereo not drawn)	0.88
CCc1nc2ccccc2n1C(CC)C(=O)NCCc1nc(C)cc(=O)[nH]1 (stereo not drawn)	0.18
O=C(Cn1c(=O)n(Cc2ccc(C(=O)NCc3ccc4c(c3)OCO4)cc2)c(=O)c2ccccc21)Nc1cccc(Cl)c1	0.15

The closing 4 entries of the part before lead into the next:
SMILES	fixLJ activator
COc1ccccc1OC(C)(C)C(=O)NC1CC(c2nnc(CO)n2C)C1 (stereo not drawn)	0.05
O=C(c1n[nH]c2c1COCC2)N1CC(O)C(Cc2ccnc3ccccc23)C1 (stereo not drawn)	0.88
CCc1nc2ccccc2n1C(CC)C(=O)NCCc1nc(C)cc(=O)[nH]1 (stereo not drawn)	0.18
O=C(Cn1c(=O)n(Cc2ccc(C(=O)NCc3ccc4c(c3)OCO4)cc2)c(=O)c2ccccc21)Nc1cccc(Cl)c1	0.15
CCN(C(=O)c1cc2c(s1)-c1ccccc1OC2)c1cccc(C(F)(F)F)c1	0.34
CCOc1ccc(NC(=O)N2CCN3C(=O)CN(C)C(=O)C3C2)cc1C#N (stereo not drawn)	0.3
O=C(Nc1ccc(OC(F)(F)F)cc1)C1CCN(S(=O)(=O)c2cccs2)CC1	-1.2
Cc1cc(C)cc(OCC(=O)Nc2ccc(S(=O)(=O)Nc3onc(C)c3C)cc2)c1	-1.9
COc1ccc2cc(-c3nc(Cl)c4c5c(sc4n3)CCCC5)c(=O)oc2c1	-1.1
CCOc1ccc(-c2cc(NC(=O)Nc3ccccc3Cl)c(C(=O)OC)s2)cc1	-2.2
CCCCOc1ccc(C(=O)Nc2ccc(-c3nc4ccccc4s3)cc2C)cc1	-0.07
Cc1cccc(NC(=O)CC2C(=O)OCCN2Cc2ccccc2)c1 (stereo not drawn)	1.1
Clc1cccc(-c2nnc(CN3CCN(c4ccccn4)CC3)o2)c1	-1.2
CCc1csc(CNC(=O)N(CCOC)Cc2cnn(C)c2)n1	-3.4
O=C(O)C1CN(S(=O)(=O)c2ccc3c(c2)OCCCO3)CCC1O (stereo not drawn)	0.84
Cc1ccc(C(=O)c2oc3ccccc3c2NC(=O)COc2ccc(C(C)(C)C)cc2)cc1	-0.08
Cc1ccc(C)c(NC(=O)C2CCCN(S(=O)(=O)c3cccc4nsnc34)C2)c1 (stereo not drawn)	-0.31

Only part of the results is shown, so the mix of outcomes need not match the whole.
